High-throughput results: PubChem, PCMD
Biofilm kill mix: mixture kills Candida albicans biofilm cells; C. albicans biofilm persisters + clotrimazole, fluorescence viability; primary screen in compound mixtures of four per well; inhibition, % at 7.6 µM; 120,000 compounds, 0.02% hits;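 active = inhibition above 30.3% in the primary screen of four-compound pools, then above 30% when the compound was retested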;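 also: compounds exposed to preformed 24 h biofilms for 48 h; the number belongs to the whole pool; some results filed as inactive read as strong as hits; inactives centre near 12; 0% = biofilm with clotrimazole alone and 100% = kill control; retested singly at about 60 µM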
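Probe or stimulus – Clotrimazole 50 µg/mL co-treatment · System – C. albicans biofilms · Schedule – 24 h biofilm formation, then 48 h compound exposure, 37 °C · Evaluation – percent inhibition of biofilm viability · Technique – 2-h Alamar Blue fluorescence, 535/590 nm excitation/emission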
* = called active by the depositor; & = joins results of further samples.

SMILES	Biofilm kill mix
Cc1ccc2oc(=O)n(CC(=O)OC(C)C)c2c1	17
Cc1ccc(C(=O)COC(=O)c2ccccc2NC(=O)c2ccccc2)cc1[N+](=O)[O-]	25
Cc1cc(C)c(C#N)c(SCC(=O)C2CC2)n1	21
O=c1c2cccnc2nc2n1CCCCC2	-30
CC1CCN(CC(CS(=O)(=O)c2ccc([N+](=O)[O-])cc2)N2CCC(C)CC2)CC1 (configuration not stated)	15
Cn1c(=O)c2c(nc(OCCc3ccccc3)n2C)n(C)c1=O	14
O=C(Oc1c(CN2CCOCC2)cc(Cl)c2cccnc12)c1ccccc1F	21
Cc1ccc(Cn2cnc3c(cnn3-c3ccc(F)cc3)c2=O)cc1	8
Cc1nc(N/N=C/c2ccc(O)cc2)c2cnn(-c3ccccc3)c2n1	-16
Cc1nnc(SCC(=O)Nc2ccccc2C(=O)NC2CC2)s1	13

A different layout for four compounds above.
Cn1c(=O)c2c(nc(OCCc3ccccc3)n2C)n(C)c1=O
  Biofilm kill mix: 14
O=C(Oc1c(CN2CCOCC2)cc(Cl)c2cccnc12)c1ccccc1F
  Biofilm kill mix: 21
Cc1ccc(Cn2cnc3c(cnn3-c3ccc(F)cc3)c2=O)cc1
  Biofilm kill mix: 8
Cc1nc(N/N=C/c2ccc(O)cc2)c2cnn(-c3ccccc3)c2n1
  Biofilm kill mix: -16

(cont.)
SMILES	Biofilm kill mix
O=C(O)CC1(O)C(=O)N(Cc2ccccc2)c2ccccc21 (configuration not stated)	31
CN(CCC#N)C(=O)COC(=O)/C=C/c1ccc2c(c1)OCO2	5
COCCn1c(SCC(=O)c2c(N)n(C)c(=O)n(C)c2=O)nc2ccccc21	6
COc1cc(NC2c3ncccc3C(=O)N2Cc2ccco2)cc(OC)c1OC (configuration not stated)	14
C#CCOCCOCCOCCNc1nc(N2CCN(C(=O)[C@H](CCCCN)n3cc([C@@H](N)C(C)CC)nn3)CC2)nc(N2CCN(C(=O)[C@H](Cc3ccc(O)cc3)n3cc([C@@H](N)C(C)CC)nn3)CC2)n1 (some centres not stated)	1
CC1C(=O)NN=C1C(=O)N/N=C/c1ccco1 (configuration not stated)	11
COc1ccc2nc(NC(=O)c3cc(C)oc3C)sc2c1	18
CCc1nnc(NC(=O)CSc2nc(-c3ccccc3)cc(-c3ccc(OC)cc3)c2C#N)s1	6
CC(CC(=O)O)CC(=O)Nc1nncs1 (configuration not stated)	8
CCN(c1ccccc1)S(=O)(=O)c1ccc(C(=O)Nc2nnc(C3CC3)o2)cc1	3
COCCN1CCC(CNCc2c(C(=O)N3CCCCC3)nc3c(C)cccn23)C1 (configuration not stated)	22
CCOC(CNC(=O)c1ccc2c(c1)ncn2-c1cccc(F)c1)OCC	21
Cc1nc(C)c(C(=O)Nc2ncc([N+](=O)[O-])s2)o1	13
Cc1ccc(S(=O)(=O)/N=C(/Nc2ccccn2)c2ccc(Cl)cc2)cc1	4
COCCn1c(SCC(=O)Nc2cc(C(C)(C)C)nn2-c2ccccc2)nnc1-c1ccncc1	23
CC(=O)c1ccccc1OCCOCCOc1ccccc1C(C)=O	14
Cc1ccn2c(NC3CCCC3)c(-c3ccncc3)nc2c1	35
CC(NC(=O)C1(S(=O)(=O)c2ccc(Cl)cc2)CC1)c1ccccc1 (configuration not stated)	14
CC(C)(C)c1csc(SCC(=O)Nc2ccc(Cl)cn2)n1	8
CCOC(=O)CN1C(=O)N[C@@H](c2ccccc2)C(C(C)=O)=C1C	8
O=C(N/N=C/c1c(Cl)[nH]c2ccccc12)c1ccc2c(c1)OCCO2	18
O=c1/c(=C\c2cc([N+](=O)[O-])cc([N+](=O)[O-])c2O)sc2nc3ccccc3n12	21
COc1ccc(/C=N/NC(=O)CN2CCSCC2)cc1C	13
COc1cccc(NC(=O)COc2nc3ccccc3nc2C)c1	15
COc1ccccc1-c1nnc(NC(=O)c2ccc3c(c2)OCO3)s1	5
CC(C)n1nnnc1SCC(=O)Nc1ccc2c(c1)OCCO2	14
CCCCC(=O)NC(=S)Nc1cccc(NC(=O)c2ccccc2)c1	-3
COCCn1nnnc1C(CC(C)C)N1CCN(c2nc3ccccc3s2)CC1 (configuration not stated)	4
COc1ccc(C=O)cc1Cn1ccnc1C	25
O=C(CC1C(=O)NCCN1C(=O)Nc1ccc(F)cc1F)Nc1ccc(F)cc1 (configuration not stated)	14
COc1ccc(/C=C/C(=O)N2CCNC(=O)C2)c(OC)c1	7
COc1cc(NC(=O)C2=C(N3CCOCC3)/C(=C\c3ccc(Cl)cc3Cl)CC2)cc(OC)c1OC	-8
CC(=O)NCc1cc(-c2ccc(Cl)cc2)no1	7
Cc1c(Cl)cccc1N1C(=O)CC(NNC(=O)c2cccs2)C1=O (configuration not stated)	15
Cn1c2c(c(=O)n(C)c1=O)NC1(N2)C(=O)Nc2ccccc21 (configuration not stated)	24
O=c1[nH]cc(COCC(F)CCl)c(=O)[nH]1 (configuration not stated)	6
COc1cc2c(cc1OC)CC(=O)N(C)CC2	20
O=C(CN1C(=O)NC2NC(=O)NC21)N/N=C/c1ccc(F)cc1 (configuration not stated)	2
COc1ccccc1CC(=O)Nc1ccc2nc(C)sc2c1	27
COc1ccc(-c2nnn(CC(=O)N(Cc3ccco3)C(C(=O)NCC3CCCO3)c3ccco3)n2)cc1 (configuration not stated)	-6
COc1cccc(NC(=O)c2cc(-c3ccncc3)nc3c(C)cc(C)cc23)c1	12
Cn1cnc([N+](=O)[O-])c1Sc1ccc(C(C)(C)C)cc1	22
COCCCn1c(=O)/c(=C\c2cccc(OC)c2OC)s/c1=C(/C#N)C(=O)Nc1ccc(C(=O)O)cc1	12
CCN(CC)CCOC(=O)c1ccc(N/C=C(/C#N)c2nc(-c3ccc(OC)cc3)cs2)cc1	15
CC(=O)C1=C(C)N(Cc2ccccc2)C(=O)N[C@H]1c1cccs1	18
Cn1nc([N+](=O)[O-])nc1Oc1ccccc1C(=O)N1CCOCC1	1
Cc1nc(COc2ccccc2Cl)sc1-c1ccnc(N)n1	14
O=S(=O)(Nc1ccncc1Cl)c1cccc(Cl)c1Cl	6
CC(O)[C@H]1CNC(=O)C(=O)N1CCc1cc(C(F)(F)F)cc(C(F)(F)F)c1 (some centres not stated)	18
COc1cccc(C(=O)OCCN2CCOCC2)c1	27

Going on with the list.
SMILES	Biofilm kill mix
Cc1ccc(C)c(-c2cc(C(=O)NN3CCOCC3)c3ccccc3n2)c1	26
COC(=O)c1ccc2c(c1)C(=O)/C(=C/c1ccc(C)cc1)O2	9
COc1cc([N+](=O)[O-])cc(/C=N/NC(=O)c2ccc(C)nc2)c1O	18
CC1(c2ccc3noc(-c4cccc(F)c4)c3c2)OCCO1	11
COc1ccc(N2C(=O)C3[C@@H](C2=O)C2(Cl)C(Cl)=C(Cl)C3(Cl)C2(OC)OC)cc1 (some centres not stated)	22
OC1(Cc2ccccc2)CCNCC1	26&22
Cc1cccc(Oc2cnn(C(C)(C)C)c(=O)c2Cl)c1	15
CCCN1CCC(NC(=S)Nc2ccc(S(N)(=O)=O)cc2)CC1	15
COc1ccc(N2CCN(C(=O)CCN3C(=O)C4C5C=CC(C5)C4C3=O)CC2)cc1 (configuration not stated)	11
CCCOP(=O)(OCCC)C(NC(=O)C(C)(C)C)c1ccccc1 (configuration not stated)	10
COc1ccc(CNC2CCCc3ccccc32)cc1OC (configuration not stated)	12
CCN1CCc2c(OCc3ccc(C)cc3)cccc2C1=O	25
O=C(Nc1ccc(N2CCCC2)c(Cl)c1)c1cccnc1	16
CC(=O)n1cc([C@@H]2C=C(C(=O)N3CCN(Cc4ccc5c(c4)OCO5)CC3)O[C@H](OCCCCO)C2)c2ccccc21	19
Cc1ccc(C(=O)N/N=C\c2cccs2)cn1	20
COCCNC(=O)C(OC(=O)c1nsc(Cl)c1Cl)C(C)C (configuration not stated)	-10
N#C/C(=C/c1ccc(-c2ccccc2[N+](=O)[O-])o1)C(=O)NCCN1CCCCC1	23
CN(C)c1ccc(S(=O)(=O)NCC(=O)OCC(=O)Nc2cc(Cl)cc(Cl)c2)cc1[N+](=O)[O-]	10
CCOc1ccc2nc(/N=C/c3c(C)[nH]n(-c4ccc(C)cc4)c3=O)sc2c1	9
COCCNC(=O)/C(C#N)=C/c1ccc(O)c([N+](=O)[O-])c1	6
CN1CCN(C(=O)/C=C/c2cn(-c3ccccc3)nc2-c2ccc3c(c2)OCCO3)CC1	15
O=C(/C=C(\c1ccccc1)n1cncn1)c1ccccc1	12
O=C(CN1CCOCC1)N/N=C/c1ccco1	23
COc1ccc2c(c1)C(C)=CC(C)(C)N2S(=O)(=O)c1ccc(Br)cc1	16
CC(=O)N1N=C(c2ccccc2)OC12CCCC2	16
COc1ccccc1C(=O)NCCc1c(C)[nH]c2c(C)ccc(F)c12	14
CC(C)[C@H](NC(=O)c1ccco1)C(=O)OCC(=O)c1ccc2c(c1)NC(=O)CO2	11
CCN(CCn1cccn1)C(=O)CCc1nnc(C2(c3ccc(Cl)cc3)CCC2)o1	17
O=C(O)C1Nc2c(O)cccc2C2C=CCC12 (configuration not stated)	22
CCOC(=O)C(Cc1ccc(OC)c([N+](=O)[O-])c1)NC(=O)CCC(=O)Nc1ccc(OC)cc1 (configuration not stated)	19

Exported as labelled records: part of the list above
smiles: O=C(/C=C(\c1ccccc1)n1cncn1)c1ccccc1
  Biofilm kill mix: 12
smiles: O=C(CN1CCOCC1)N/N=C/c1ccco1
  Biofilm kill mix: 23
smiles: CCN(CCn1cccn1)C(=O)CCc1nnc(C2(c3ccc(Cl)cc3)CCC2)o1
  Biofilm kill mix: 17
smiles: CC(C)[C@H](NC(=O)c1ccco1)C(=O)OCC(=O)c1ccc2c(c1)NC(=O)CO2
  Biofilm kill mix: 11

Next results
SMILES	Biofilm kill mix
COc1ccc(N/C=C/C(=O)c2ccc(OC)c(OC)c2)cc1	20
CC1CCCCC1NC(=O)CN1C(=O)c2cccc(N)c2C1=O (configuration not stated)	8
CCN(CC)CCOC(=O)c1ccc(Cl)cc1Cl	10
NCCOc1ccc(C2CCCCC2)cc1	6
O=C(O)CCCNS(=O)(=O)/C=C/c1ccccc1	13
Cc1ccc(-c2csc(NC(=O)CSc3nc4ccccc4[nH]3)n2)cc1	19
Cc1ccc(-c2cc(=O)c3cc(F)ccc3[nH]2)cc1	13
COc1ccc(C(=O)/C=C/c2ccc(OC)c(Cn3nnc4ccccc43)c2)cc1	10
O=C(NNC(=O)C1CCN(S(=O)(=O)c2cccc(C(F)(F)F)c2)CC1)C1CC1	4
Cc1ccc(CS(=O)(=O)CCC(=O)NCCC2=CCCCC2)cc1	9

Random excerpt: 3 entries already listed
SMILES	Biofilm kill mix
O=C(O)CCCNS(=O)(=O)/C=C/c1ccccc1	13
CCN(CC)CCOC(=O)c1ccc(Cl)cc1Cl	10
Cc1ccc(-c2cc(=O)c3cc(F)ccc3[nH]2)cc1	13

The list goes on.
SMILES	Biofilm kill mix
COc1ccc(CCNC(=O)CO/N=C/c2cc3c(cc2Br)OCO3)cc1OC	0
CC(C)CN1C=C2C(=O)C(C)(OC(=O)C3CCCC3)C(=O)C=C2C=C1c1ccsc1 (configuration not stated)	17
COC(=O)c1ccc2c(=O)n(CCCCCC(=O)O)c(=S)[nH]c2c1	9
CCOCCCn1c(C)nc2c(c1=O)c1nc3ccccc3nc1n2-c1ccc2c(c1)OCCO2	14
CCCCCCNC1=NCCS1	12
Cc1[nH]c2ccccc2c1C(=O)COC(=O)Cn1c(C(F)(F)F)nc2ccccc21	12
O=C(Nc1nc2ccccc2s1)c1ccc(N2CCCCC2)c([N+](=O)[O-])c1	15
Cc1c(CCOC(=O)CC23CC4CC(CC(C)(C4)C2)C3)sc[n+]1CC(=O)c1ccccc1	29
O=C(COC(=O)C1=COCCO1)Nc1ccccc1	10
COc1cc(/C(C)=N/NC(=O)C(O)(c2ccccc2)c2ccccc2)ccc1O	14
CN(C)c1ccc(C2CNC(c3ccc(Cl)c([N+](=O)[O-])c3)c3[nH]c4ccccc4c32)cc1 (configuration not stated)	18
CNC(=O)c1sc(=S)n(-c2ccc(OC)cc2)c1N	16
Cc1nc(NC(=O)/C=C/c2ccccc2)sc1C(=O)N1CCCCC1	3
COc1cc(C(O)c2nc3ccccc3s2)cc(OC)c1OC (configuration not stated)	20
CCN(CC)S(=O)(=O)c1cc(NS(=O)(=O)c2cccc(Cl)c2)ccc1C	9
O=C(O)C1=C[C@@H](C2CCCCC2)C[C@@H](OCc2ccc(CO)cc2)O1	12
Cc1cccc(NC(=S)NC2CCCCCC2)c1C	13
Cn1c(=O)n(C)c2cc([N+](=O)[O-])c(N3CCN(CCO)CC3)cc21	7
COc1ccc(OCC(=O)N/N=C/c2ccncc2)cc1	15
O=C(O)C1SCCN1S(=O)(=O)c1ccc2ccccc2c1 (configuration not stated)	14
C#CCOCCOCCOCCNc1nc(OC)nc(N2CCN(C(=O)[C@H](CCCCN)n3cc(C(N)CO)nn3)CC2)n1 (some centres not stated)	1
C=C(C)C(=O)Nc1nnc(-c2cccs2)s1	18
O=[N+]([O-])c1cccc(-c2ccc(/C=N/NC(=S)NCc3ccco3)o2)c1	1
CC(=O)c1ccc(N2CCN(C(=O)Cn3c(=S)[nH]c4ncccc4c3=O)CC2)cc1	4
CCCCCC(=O)NNC(=O)c1ccc(F)cc1	11

This is a subset; the hit share may differ from the screen's.
